Screens: PubChem, National Center for Advancing Translational Sciences (NCATS)
Rango complex inh – prevents formation of the Rango-importin beta complex. Q14974. Rango CFP/YFP FRET sensor + importin beta, 45 min. Potency, µM (doses to about 92.2 µM), inactives show at the top dose inhibition of complex formation. actives 0.031% (n = 340,000); active = rising FRET ratio curve, often small or poorly fitted; inconclusive = mostly compound fluorescence or quenching in the first reads; inactive = flat curves in all reads;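 also: potency is read from the fitted curve at half-maximal effect; 0% = DMSO wells and 100% = buffer wells lacking importin beta; nearly all actives have a fitted effect of over 15% in size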
Target sequence (Q14974 whole entry, looked up): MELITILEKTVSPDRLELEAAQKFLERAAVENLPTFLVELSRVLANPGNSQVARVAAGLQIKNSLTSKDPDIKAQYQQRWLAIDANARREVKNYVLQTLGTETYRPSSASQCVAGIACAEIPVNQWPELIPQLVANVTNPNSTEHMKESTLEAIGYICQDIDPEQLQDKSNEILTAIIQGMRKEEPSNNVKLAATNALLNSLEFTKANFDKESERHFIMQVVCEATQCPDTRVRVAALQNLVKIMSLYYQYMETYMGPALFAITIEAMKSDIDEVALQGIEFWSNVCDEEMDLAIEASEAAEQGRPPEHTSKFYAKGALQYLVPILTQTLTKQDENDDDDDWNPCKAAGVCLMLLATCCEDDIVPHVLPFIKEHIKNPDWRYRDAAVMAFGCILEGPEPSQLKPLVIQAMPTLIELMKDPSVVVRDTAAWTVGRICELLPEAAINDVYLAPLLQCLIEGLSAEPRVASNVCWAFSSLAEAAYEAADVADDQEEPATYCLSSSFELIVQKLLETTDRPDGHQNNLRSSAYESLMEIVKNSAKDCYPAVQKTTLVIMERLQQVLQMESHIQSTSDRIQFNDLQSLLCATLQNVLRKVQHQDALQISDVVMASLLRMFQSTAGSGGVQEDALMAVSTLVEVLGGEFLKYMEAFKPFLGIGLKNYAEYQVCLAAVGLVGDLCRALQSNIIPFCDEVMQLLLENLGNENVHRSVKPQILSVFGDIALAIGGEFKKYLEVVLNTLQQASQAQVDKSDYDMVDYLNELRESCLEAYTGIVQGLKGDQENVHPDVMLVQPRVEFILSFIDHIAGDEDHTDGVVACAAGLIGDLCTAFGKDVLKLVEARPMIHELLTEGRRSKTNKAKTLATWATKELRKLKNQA
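FRET biosensor Rango (snurportin 1 IBB between N-terminal EYFP and C-terminal Cerulean), 50 nM in PBS/1 mM DTT/0.02% Tween-20/0.1% BSA, preincubated 5 min RT with compound; 0.125 microM importin beta added, 45 min RT, CFP/YFP FRET ratio read.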
GLA inh pH 4.5 – alpha-galactosidase A (human) inhibition, pH 4.5; purified enzyme, 4-MU-alpha-Gal fluorescence, pH 4.5; activity change, negative = inhibition, % at 105 µM; 230,000 tested, under 10 active; inconclusive = small, poorly fitted or top-dose-only inhibition, or a rising curve; inactive = flat fitted curve, though single readings scatter; no compound was filed as active;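 also: 0% = full activity with enzyme and -100% = basal without enzyme; dose as in the result columns while the protocol names 77 µM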
Rango dissoc inh – inhibition of RanGTP-driven Rango-importin beta dissociation. O95149+P62826. Biochemical FRET Rango-importin beta, RanGTP-induced dissociation. Potency, µM (titrated, usually from 46.1 µM), for inactives: at the top dose activity change, negative = inhibition. actives 0.071% (n = 340,000); active means falling FRET ratio curve, often poorly fitted, with flat reads before Ran was added; inconclusive means other falling curves, or compound fluorescence or quenching; inactive means flat or rising ratio curve;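 also: potency is read from the fitted curve at half-maximal effect; % of control where 0% means no effect; nearly all actives have a fitted effect of over 45% in size; -100% = wells without RanGTP and RCC1; the record marks most hits as doubtful in a second field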
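FRET read at 45 min, room temperature: inhibitors block the CFP/YFP signal rise when RanGTP (0.6 uM Ran, 2 mM GTP, 0.2 uM RCC1) frees Rango (0.1 uM) from importin beta (0.25 uM). Pre-read after 5 min compound exposure flags interference.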
miR-21 reporter – miR-21 reporter, rising signal; HeLa miR-21 FLuc reporter, luciferase, 48 h; Potency, µM (titrated, usually from 38.3 µM), without a hit: at the top dose reporter change, positive = more light; 340,000 tested, under 10 active; AID 2288; active = well fitted rising curve with a large enough effect; inconclusive = small, poorly fitted or top-dose-only effect; inactive = no such curve, though single readings can be large or run the other way;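 also: % of control where 0% means no effect; miR-21 action dims this reporter so a rising signal means less miR-21 action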
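Compounds were titrated across several concentrations (up to approximately 40 uM) and incubated 48 hours with HeLa miR-21-FLuc reporter cells (miR-21 target sequence downstream of FLuc, endogenous miR-21). Readout was firefly luciferase luminescence after lytic detection reagent.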
* = called active by the depositor; ? = inconclusive; nt = no result given; & = joins results of further samples.

Rango complex inh	GLA inh pH 4.5	Rango dissoc inh	miR-21 reporter	mol
5.7%	nt	1%	nt	Cc1cc(C(=O)OCC(=O)Nc2c(Cl)cccc2Cl)c(C)o1
-0.8%	6	4%	1%	Cc1ccc(C)c(-n2ccnc2SCC(N)=O)c1
-0.8%	nt	16%	nt	C#CCOCCOCCOCCNc1nc(N2CCN(C(=O)[C@H]([C@@H](C)CC)n3cc(CCC(=O)O)nn3)CC2)nc(N2CCN(C(=O)[C@H](CCCCN)n3cc(CCC(=O)O)nn3)CC2)n1
-3.5%	nt	3%	-4%	Nc1c(Cl)c(Cl)nc(C(=O)N/N=C/c2ccco2)c1Cl
-1.2%	nt	17%	-5%	COc1ccc(C(=O)OC(C)C(=O)NC(C)CCc2ccccc2)cc1[N+](=O)[O-] (centres undefined)
?	-4	8%	-17%	O=[N+]([O-])CC(=Nc1ccc(Cl)cc1)N/N=C\c1oc(O)c2ccccc12
2.6%	-4	-9%	-12%	CCC1Oc2ccc(C)cc2N(CC(=O)N(Cc2ccc(C)o2)C2CC(C)(C)NC(C)(C)C2)C1=O (centres undefined)
1.3%	nt	?	nt	CC(N=C1NS(=O)(=O)c2ccccc21)C(=O)OCC(=O)N(C)C1CCS(=O)(=O)C1 (centres undefined)
-0.2%	nt	5%	-56%	CC(C)c1nnc(NC(=O)c2ccc3ccccc3c2)s1
-2.9%	-8	10%	-3%	O=C(COc1ccccc1F)Nc1ccc(S(=O)(=O)NCc2ccco2)cc1
0.7%	-8	-7%	-66%	COc1cc(SC)ccc1C(=O)Nc1ccc(C)cc1C
-3.1%	nt	-6%	-49%	O=C(Cc1ccc(-c2ccccc2)cc1)Nc1ncccc1O
5.8%	4	18%	-1%	O=C(c1cc(Cl)ccc1Cl)N1CCOCC1
?	7	?	-11%	CCCCCCCCOC(=O)C(NC(=O)CCC(=O)Nc1ccc(S(N)(=O)=O)cc1)C(O)c1ccccc1 (centres undefined)
0.1%	2	1%	-52%	Cc1ccc(N=C2NC(=O)/C(=C\c3ccco3)S2)cc1
6.5%	0	-5%	1%	CC(=O)CCn1cnc([N+](=O)[O-])n1
0.5%	nt	-1%	0%	Cc1oc(-c2ccc(Cl)cc2)nc1CS(=O)CC(=O)NCc1ccccn1 (centres undefined)
1.1%	-7	-1%	17%	Cc1ccc(S(=O)(=O)N(CCCO)CC(O)CON=C2c3ccccc3-c3ccccc32)cc1 (centres undefined)
-1.8%	6	13%	-16%	CC1=C(C)CC(C(=O)NNC(=O)c2csc3c2CCC(C(C)(C)C)C3)C(C(=O)O)C1 (centres undefined)
2.9%	nt	6%	-21%&-8%	CCCNC(=O)c1ccc2c(c1)nc(C)n2-c1cccc(C)c1
0.7%	nt	13%	nt	CC(=O)c1ccccc1NC(=O)c1ccc(OCc2c(C)noc2C)cc1
-3.2%	1	5%	-11%	O=C(CSc1nc2ncc(Br)cc2[nH]1)c1cccc([N+](=O)[O-])c1
-2.2%	2	1%	-69%	C/C(=N\NC(=O)COc1ccccc1[N+](=O)[O-])c1cccs1
-0.2%	-10	-5%	-16%	O=C(N/N=C/c1cc(Cl)cc([N+](=O)[O-])c1O)c1ccccc1NS(=O)(=O)c1cccs1
0.4%	-10	1%	-2%	CCOC(=O)N1CCN(C(=S)Nc2ccc(C)cc2C)CC1
?	4	-16%	-3%	Cc1c(CCCN)c2ccccc2n1Cc1ccccc1
0.2%	nt	-13%	3%&-1%	CCN(Cc1ccccc1)C(=O)CN1C(=O)COc2ccc(S(=O)(=O)NC3CCCC3)cc21
-7.1%	nt	1%	nt	C=CCc1cc(C=Nc2ccc(N3CCOCC3)cc2)cc(OCC)c1O
0.0%	nt	4%	8%	Cc1nc2c(sc(=S)n2Cc2ccco2)c(=O)n1CC(=O)Nc1ccc(F)cc1
?	nt	?	-1%	Oc1c(Br)cc(Br)cc1/C=N/n1c(-c2ccccc2)n[nH]c1=S
4.9%	1	-9%	-12%	COc1ccc(/C=N/OCC(=O)N2CCCC2)c(OC)c1
-1.4%	nt	-2%	nt	CC(C)Nc1ncnc2[nH]ncc12
3.5%	-8	7%	4%	Cc1n[nH]c(=S)n1-c1ccc(Cl)cc1
0.5%	4	2%	-10%	Cc1ccc([N+](=O)[O-])c(OCCN2C(=O)NC(C)(C)C2=O)c1
-0.7%	2	-18%	18%	CCC(=NCCc1c(C)[nH]c2ccccc12)C1=C(O)CC(c2ccccc2)CC1=O (centres undefined)
0.0%	nt	22%	27%	CC(C)(C)OC(=O)[C@H](Cc1ccccc1)NC(=O)c1nc[nH]c1C(=O)N1CCN(C(=O)OC(C)(C)C)CC1
-3.3%	0	5%	-3%	O=C(Nc1cc(C(F)(F)F)ccc1F)C1CCC1
-1.0%	-6	3%	7%	CCOC(=O)Cn1c(CN(Cc2ccccc2)Cc2ccccc2)nc2c1c(=O)n(C)c(=O)n2C
-1.9%	nt	-19%	nt	CC(C)c1ccc(C2(C)NC(=O)N(C(C)C(=O)Nc3ccc(N4CCOCC4)cc3)C2=O)cc1 (centres undefined)
-0.1%	6	7%	-1%	O=C(c1cccc(S(=O)(=O)N2CCCC2)c1)c1nnc(-c2ccncc2)o1

Reprinted from the part before: 2 compounds; new compounds follow.
Rango complex inh	GLA inh pH 4.5	Rango dissoc inh	miR-21 reporter	mol
-1.9%	nt	-19%	nt	CC(C)c1ccc(C2(C)NC(=O)N(C(C)C(=O)Nc3ccc(N4CCOCC4)cc3)C2=O)cc1 (centres undefined)
-0.1%	6	7%	-1%	O=C(c1cccc(S(=O)(=O)N2CCCC2)c1)c1nnc(-c2ccncc2)o1
-4.9%	-7	4%	8%	CCN(CC)S(=O)(=O)c1ccc(NC=C(C#N)C#N)cc1
1.4%	nt	8%	0%	O=C(CNC(c1ccccc1)c1ccccc1)Nc1ccccc1Br
4.8%	-4	8%	4%	Cc1cccc2cc(CN(Cc3ccccc3)C(=O)c3cccc(F)c3)c(Cl)nc12
-0.8%	-1	?	-13%	CCC(C)C(=O)Nc1cc([N+](=O)[O-])ccc1Cl (centres undefined)
-4.7%	nt	1%	-11%	O=C(CNC(=O)c1cccs1)N=Nc1c(O)[nH]c2ccc(Br)cc12
-1.8%	-15	8%	6%	CCCCNC(=O)/C=C/c1ccc(S(=O)(=O)Nc2ccc(OC)cc2)cc1
-0.8%	nt	0%	nt	COc1ccc2[nH]c3c(c2c1)CCN1C(=O)C(CC(=O)NCCc2ccccn2)C[C@H](C(=O)N(C(C)C)C(C)C)[C@@]31C (some centres undefined)
?	nt	?	nt	O=C1NC(=S)S/C1=C\c1cc(Cl)cc(Cl)c1O
-3.3%	-6	3%	0%	COc1cccc(N(C(=O)Cn2nnc(-c3ccc(C)o3)n2)C(C(=O)NC(C)(C)C)c2cccs2)c1 (centres undefined)
-3.6%	nt	-4%	2%	Cc1cccc(N2CCN(S(=O)(=O)c3ccc4c(c3)C(C)(C)C(=O)N4C)CC2C)c1 (centres undefined)
4.6%	-7	8%	-3%	CCC(=O)N1CCN(c2cc(C)ccc2C)CC1
?	nt	3%	nt	COc1ccc(Cl)cc1NC(=O)COC(=O)C1=NNC(=O)CC1
2.8%	nt	4%	-2%	CCn1c(CNC(=O)c2ccco2)nnc1SCC(=O)c1ccc(F)cc1
-1.0%	-12	-11%	1%	N#CC1=C(N)NC(=S)C(C(N)=O)C1c1ccc(Cl)cc1Cl (centres undefined)
-4.6%	nt	0%	nt	O=C(Cn1ccnc1[N+](=O)[O-])NCc1ccccc1
3.6%	nt	16%	-1%	O=S(=O)(Cc1ccccc1)N1CCN(Cc2ccc(F)cc2Cl)CC1
0.2%	-3	-8%	-4%	O=C1CCCN1Cc1ncnn1-c1ccccc1
0.7%	nt	-10%	nt	CN(Cc1ccc(OC(F)F)cc1)C(=O)c1ccc(S(=O)(=O)N(C)c2ccccc2)cc1
-1.1%	-8	-12%	-11%	O=C(NCCCn1ccnc1)c1sc2cccc(F)c2c1Cl
3.2%	0	26%	3%	Cc1c(NC(=O)c2ccc(Cl)s2)c(=O)n(-c2ccccc2)n1C

Results in Rango dissoc inh, Rango complex inh and miR-21 reporter (3 entries from above):
structure	Rango dissoc inh	Rango complex inh	miR-21 reporter
O=C(CSc1nc2ncc(Br)cc2[nH]1)c1cccc([N+](=O)[O-])c1	5%	-3.2%	-11%
C/C(=N\NC(=O)COc1ccccc1[N+](=O)[O-])c1cccs1	1%	-2.2%	-69%
O=C(N/N=C/c1cc(Cl)cc([N+](=O)[O-])c1O)c1ccccc1NS(=O)(=O)c1cccs1	-5%	-0.2%	-16%

More structures follow:
Rango complex inh	GLA inh pH 4.5	Rango dissoc inh	miR-21 reporter	mol
-1.8%	nt	0%	1%	Cc1ccc(S(=O)(=O)N(C)C)cc1NC(=O)CCNC(=O)c1ccco1
3.3%	-4	-17%	-1%	CC(=O)NC(N(C#N)c1nc(Cl)nc(N(C)C)n1)C(Cl)(Cl)Cl (centres undefined)
4.3%	nt	19%	nt	CCC(C)N(C(=O)COc1ccc(Br)cc1C=O)C1CCS(=O)(=O)C1 (centres undefined)
?	0	-22%	-29%	Cn1c(-c2ccccc2)cnc1SCc1nc2ccccc2c(=O)[nH]1
0.1%	-7	-7%	-6%	O=c1c2nccnc2[nH]c(=S)n1Cc1ccccc1Cl
3.6%	nt	0%	nt	CCN(CC(=O)Nc1c(F)cccc1F)C(=O)c1cc([N+](=O)[O-])ccc1N1CCOCC1
-0.8%	nt	1%	nt	O=C(CCNC(=O)OCC1c2ccccc2-c2ccccc21)NOCc1ccccc1
-1.0%	-6	?	4%	Cc1nc2cc(C(F)(F)F)ccc2n1C
-0.7%	5	-1%	-5%	Cc1c(Cl)cccc1S(=O)(=O)Nc1ccnn1C
-1.6%	3	-6%	-2%	CCCCN(C)CCNC(=O)C(NC(=O)C1CCC(C)CC1)C(C)C (centres undefined)
-0.1%	2	-5%	-2%	OCCNCC(O)Cn1c2ccccc2c2ccccc21 (centres undefined)
0.0%	nt	-21%	0%	O=c1c2ccccc2ncn1-c1ccc(Br)cc1[N+](=O)[O-]
5.5%	0	-1%	-5%	CCOC(=O)c1c(NC(=O)CSc2nnc3c(Cl)cc(Cl)cn23)sc2c1CCC2
6.1%	-4	2%	-1%	COc1ccc(NC(=O)C2CC(=O)N(c3cc(C)ccc3C)C2)cc1 (centres undefined)
-2.2%	nt	0%	-20%	S=C(Nc1ccc(Br)cc1)Nc1ccc2c(c1)OCCO2
0.5%	2	-10%	-23%	CCOP(=O)(OCC)C(NC(=O)Nc1ccc(C)cc1)C(N)=O (centres undefined)
0.3%	nt	0%	nt	CCOc1ccc(-n2ccnc(SCC(=O)Nc3cccc(OC)c3)c2=O)cc1
-0.3%	nt	-5%	-53%	O=C(Nc1ccccc1Cl)NC1CCCCCCC1
?	19	?	23%	NC(=O)c1cc2ccc(O)cc2oc1=Nc1ccccc1
3.1%	-24	-11%	1%	CNC(=S)NNc1nc(N2CCOCC2)nc(N2CCOCC2)n1
-1.8%	nt	0%	-2%	COc1ccc(C)cc1NC(=O)CCC(=O)Nc1nnc(C2CCCCC2)s1
0.9%	nt	-6%	0%	O=S(=O)(CCN1CCOCC1)c1ccc(OC(F)(F)F)cc1
-1.2%	nt	2%	nt	O=c1c2ccccc2nnn1CSc1nc2cc(Cl)ccc2c(=O)n1Cc1ccco1
9.7%	nt	-15%	29%	NC(N)=Nc1nc(-c2ccccc2)c2cc(Cl)ccc2n1
0.2%	-8	19%	-51%	CC(=O)c1cccc(NC(=S)NC(=O)c2ccc(Cl)cc2)c1
0.3%	6	-2%	-36%	CCCCCCNC(=O)Nc1ccccc1
0.0%	-4	-13%	-11%	O=C(CSc1nnc(-c2ccco2)n1Cc1ccccc1)NCc1ccccc1
-0.4%	-1	6%	-30%	CN(C)CCCNc1ncnc2c1cnn2-c1ccccc1

Of the compounds above, these contain a CF3 group:
Rango complex inh	GLA inh pH 4.5	Rango dissoc inh	miR-21 reporter	mol
-3.3%	0	5%	-3%	O=C(Nc1cc(C(F)(F)F)ccc1F)C1CCC1
-1.0%	-6	?	4%	Cc1nc2cc(C(F)(F)F)ccc2n1C
0.9%	nt	-6%	0%	O=S(=O)(CCN1CCOCC1)c1ccc(OC(F)(F)F)cc1

This is a subset; rates above refer to the full screens.
